Assay outcomes deposited in PubChem BioAssay by National Center for Advancing Translational Sciences (NCATS).
2A StopGo – High Throughput Screening for Foot and Mouth Disease Virus Antivirals | human cells with a luciferase reporter of 2A StopGo recoding; control for the full effect not named in the record | Potency, µM (titrated, usually from 57.9 µM), inactives show at the highest dose signal change, negative = less light | 410,000 compounds, 1.2% hits; active = well fitted falling curve with a large enough effect; inconclusive = small, poorly fitted or top-dose-only effect; inactive = no such curve, though single readings can be large or run the other way; tested in HEK293T cells; also: % is scaled to controls: 0 for no effect and ±100 for the full control effect; nearly all actives have a fitted effect of over 45% in size; luciferase light after 4 h
SARS PLpro yeast – qHTS of Yeast-based Assay for SARS-CoV PLP; S. cerevisiae expressing SARS-CoV PLpro, growth rescue; control for the full effect not named in the record; Potency, µM (top dose mostly 32.9 µM), for the others: top-dose activity, positive = growth rescue; 330,000 compounds, 0.19% hits; AID 485353, 2010; active means well fitted rising curve with a large enough effect; inconclusive means small, poorly fitted or top-dose-only effect; inactive means no such curve, though single readings can be large or run the other way; also: 0% is about no effect; nearly all actives have a fitted effect of over 55% in size; growth read by luminescence after 48 h
NS1 function inh – qHTS Assay for Inhibitors of Influenza NS1 Protein Function. S. cerevisiae slowed by influenza A NS1, growth recovery by OD600. AID 2326, 2010. 270,000 compounds, 0.4% hits. Potency, µM (doses to about 46.1 µM), for the others: top-dose activity, positive = more growth; active means well fitted rising curve with a large enough effect; inconclusive means small, poorly fitted or top-dose-only effect; inactive means no such curve, though single readings can be large or run the other way; also: nearly all actives have a fitted effect of over 50% in size
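A cell-based growth assay was used: compounds that relieve NS1-induced slow growth of budding yeast raise OD600. Assay medium was yeast nitrogen base with ammonium sulphate and -URA supplement, pH 6.0, with 2% galactose.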
Marburg entry inh – qHTS for inhibitors of binding or entry into cells for Marburg Virus; Marburg virus pseudotyped entry inhibition, cell reporter; control for the full effect not named in the record; about a third of the inactives were read at about 46 µM; Potency, µM (highest dose often 37.8 µM), inactives show top-dose activity change, negative = inhibition, hits mostly inhibitors; 300,000 compounds, 1.8% hits; AID 540276, 2011; active = well fitted inhibition curve with a large enough effect; inconclusive = small, poorly fitted or top-dose-only effect, or effect the other way; inactive = flat fitted curve, though single readings scatter; tested in HEK293 cells; about a fifth of its hits are not listed in these tables; also: % is scaled to controls: 0 for no effect and ±100 for the full control effect; luciferase read-out
Cruzain Triton – qHTS Assay for Promiscuous and Specific Inhibitors of Cruzain (with detergent) | Cruzipain (Trypanosoma cruzi), P25779 | Potency, µM, without a hit: max response, negative = inhibition, actives largely listed as inhibitors | purified cruzain, Z-FR-AMC fluorescence, 0.01% Triton | 200,000 compounds, 0.43% hits;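 also: plate controls were neutral wells for no effect and buffer without enzyme for full effect; nearly all actives have a fitted effect of over 40% in size; top concentration of the series not given in the record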
Target sequence (P25779 123-467 limits assumed): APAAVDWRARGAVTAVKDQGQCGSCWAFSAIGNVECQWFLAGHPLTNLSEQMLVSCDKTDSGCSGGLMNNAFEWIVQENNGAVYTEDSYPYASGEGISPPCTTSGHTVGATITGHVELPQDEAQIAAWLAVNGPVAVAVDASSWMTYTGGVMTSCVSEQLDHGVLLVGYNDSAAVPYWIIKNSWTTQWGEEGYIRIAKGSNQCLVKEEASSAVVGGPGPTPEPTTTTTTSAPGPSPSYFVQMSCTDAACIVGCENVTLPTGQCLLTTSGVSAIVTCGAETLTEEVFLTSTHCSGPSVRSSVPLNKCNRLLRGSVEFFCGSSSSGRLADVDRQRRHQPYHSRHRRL
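Sodium acetate buffer (100 mM, pH 5.5) containing 5 mM DTT and 0.01% Triton X-100 hosted 1.5 nM cruzain and test compound for 15 min at room temperature. Cleavage of 2 uM Z-FR-AMC was then tracked by fluorescence.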
RE007 growth inh – qHTS Assay for Inhibitors of the HIV-1 protein Vpr. S. pombe RE007 Vpr strain, BacTiter-Glo ATP luminescence, 24 h; control for the full effect not named in the record. Potency, µM (top dose mostly 92.2 µM), without a hit: at the highest dose activity change, negative = less growth. 360,000 compounds, 0.21% hits; active = well fitted falling curve with a large enough effect; inconclusive = small, poorly fitted or top-dose-only effect; inactive = no such curve, though single readings can be large or run the other way;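 also: % is scaled to controls: 0 for no effect and ±100 for the full control effect; nearly all actives have a fitted effect of over 50% in size; the assay follows cell death caused by Vpr and the record does not say whether a fall means rescue or toxicity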
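Fission yeast RE007 carrying one integrated HIV-1 vpr copy, seeded at OD 0.01 in PMG+AL medium with 23 nL pinned compound. Grown 24 h at 30 degrees; viability read by BacTiter-Glo luminescence after 5 min.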
LASV entry inh – qHTS for Inhibitors of binding or entry into cells for Lassa Virus. Potency, µM (titrated, usually from 37.9 µM), without a hit: at the top dose activity change, negative = inhibition, most hits filed as inhibitors. 300,000 compounds, 1.2% hits. Lassa virus pseudotype entry inhibition, cell reporter; control for the full effect not named in the record; active means well fitted inhibition curve with a large enough effect; inconclusive means small, poorly fitted or top-dose-only effect, or effect the other way; inactive means flat fitted curve, though single readings scatter; tested in HEK293 cells; also: % is scaled to controls: 0 for no effect and ±100 for the full control effect; nearly all actives have a fitted effect of over 50% in size; luciferase read-out
Cruzain noTriton – qHTS Assay for Promiscuous and Specific Inhibitors of Cruzain (without detergent). Cruzipain (Trypanosoma cruzi), P25779. purified cruzain, Z-FR-AMC fluorescence, no detergent. Potency, µM, for the others: max response, negative = inhibition, most hits filed as inhibitors. 200,000 compounds, 2.3% hits;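 also: plate controls were enzyme without inhibitor for no effect and buffer without enzyme for full effect; nearly all actives have a fitted effect of over 40% in size; top concentration of the series not given in the record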
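Detergent-free condition (0.00005% Triton X-100) in acetate buffer pH 5.5 with DTT. 1.5 nM enzyme and compound were pre-mixed 15 min, then 2 uM Z-FR-AMC substrate added; reaction progress from fluorescence change between first and third reads (60 s).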
* = called active by the depositor; ? = inconclusive; nt = not tested or not shown; & = joins results of further samples; [ ] = another dose, or the depositor's remark. Unless noted, calls follow the shape of the dose curve; as a rule, active = well fitted curve in the direction sought with a large enough effect; inconclusive = small, poorly fitted or top-dose-only effect, or another doubt; inactive = no such curve, though single readings can be large; an effect the other way counts as inactive or inconclusive. Potency is read from the fitted curve at half-maximal effect.

Compound,2A StopGo,SARS PLpro yeast,NS1 function inh,Marburg entry inh,Cruzain Triton,RE007 growth inh,LASV entry inh,Cruzain noTriton
Cc1nnc(Sc2nc3ccccc3o2)c2ccccc12,?,-11%,-45%,18%,-4.1%,-17%,-19%,-9%
O=C(CN1C(=O)/C(=C/c2ccccc2F)Oc2ccccc21)N1CCN(c2ccccn2)CC1,-4%,-16%,2%,?,28%,-5%,12%,-9%
O=C(c1ccccc1)c1ccc(Oc2ccc(C(=O)O)c(C(=O)O)c2)cc1,-13%,1%,?,nt,nt,3%,nt,nt
COc1cc(NC(=O)CC(C)S(=O)(=O)c2ccc3c(c2)NC(=O)CO3)cc(OC)c1OC (stereo not given),-17%,1%,-8%,5%[46.1 µM],nt,-3%,3%[46.1 µM],nt
COc1ccc(/C(N)=N/OC(=O)Oc2ccccc2)cc1OC,-10%,4%,-3%,-4%,-3.2%,7%,0%,-1%
Cc1nn(C)c(NC(=O)c2ccccc2Cl)c1Cl,-13%,-2%,-2%,1%,nt,0%,nt,nt
O=C(Nc1ccccc1)c1ccccc1N=Cc1cccc(O)c1,-13%,-1%,-1%,-24%,nt,-15%,25%[46.1 µM],nt
O=C(Nc1ccncc1)c1cncc(Br)c1,2%,2%,23%,2%,-0.7%,-2%,-8%,-1%
Cc1ccc(N2CC(NC(=O)C3CCCCC3)CC2=O)cc1C (stereo not given),-7%,nt,nt,nt,-0.1%,nt,-6%[46.1 µM],-4%
COc1ccc(Cc2c(O)nc(SCC(=O)NC(C)(C)C)[nH]c2=O)cc1,6%,0%,4%,-14%,nt,6%,3%,nt
COc1ccc(-c2nc(CSCC(=O)N3CCC4(CC3)OCCO4)c(C)o2)cc1OC,?,1%,-7%,7%,4.8%,-23%,-11%,?
Fc1ccc(CSc2nc3ncc(Br)cc3[nH]2)cc1,3%,3%,0%,1%,-18%,-9%,-29%,?
COC(=O)c1cc(Br)c(=O)n(-c2ccccc2F)c1,6%,6%,15%,18%,2.8%,-13%,0%,-6%
Brc1ccc(Nc2c3c(nc4ncnn24)CCC3)cc1,?,-8%,-19%,-26%,-4.3%,5%,-22%,-20%
CCn1cc(/C=C(\NC(=O)c2ccc(OC)cc2)C(=O)NCCCn2ccnc2)c2ccccc21,20%&4%,nt,nt,-19%[46.1 µM],-7.7%,-12%,1%[46.1 µM],12%
Cc1ccc(NC(=O)COC(=O)Cc2c(F)cccc2Cl)cc1S(=O)(=O)N1CCOCC1,-12%,0%,nt,1%,nt,2%,8%,nt
O=C(C1CCCC1)N1CCN(S(=O)(=O)c2cccc(Cl)c2Cl)CC1,-19%,0%,-7%,?,nt,0%,?,nt
CCCCN(C(=O)c1cc(S(=O)(=O)N2CCCCCC2)ccc1OC)c1ccccc1,?,1%,nt,?,nt,2%,?,nt
CC1CCN(C(=O)CSc2nc3c(c(=O)n(C)c(=O)n3C)n2C)CC1,-25%,4%,12%,-5%[46.1 µM],nt,15%,-3%,nt
CCCCNc1ncnc2c1cnn2-c1ccc(C)cc1C,-6%,-16%,-181%,nt,-5.5%,5%,nt,-1%
Cc1ccc(C(=O)Oc2ccc(Cl)c3cccnc23)cc1[N+](=O)[O-],?,-20%,-54%,?,-4.3%,-9%,-11%,4%
CC1(C)CCC(=O)N(c2ccc(OC(F)(F)F)cc2)C1=O,29%,1%,7%,11%[46.1 µM],nt,2%,8%[46.1 µM],nt
COc1ccc(NC(=O)COC(=O)Cn2cnc3ccccc3c2=O)cc1OC,-1%,7%,-4%,2%[46.1 µM],nt,1%,15%[46.1 µM],nt
COC(=O)Cc1nc2ccccc2[nH]1,?,-6%,3%,6%,8.1%,-15%,17%,-1%
CCOC(=O)C1=C(O)/C(=C/c2cc(C)n(-c3ccccc3)c2C)N=C1C,12%,0%,6%,?,nt,-9%,11%,nt
Cc1cc(-n2c(/C=C/c3ccc(Br)s3)nc3ccccc3c2=O)ccc1Br,?,nt,nt,nt,-0.7%,nt,5%[46.1 µM],?
Cc1ccc(C)c(N2CCN(C(=O)CCCOc3cc(=O)n(C)c4ccccc34)CC2)c1,25µM*,1%,-69%,?,-7.2%,9%,?,?
CCN(CC(=O)Nc1c(F)cccc1F)C(=O)C1Cc2ccccc2CN1S(=O)(=O)CC (stereo not given),20%,-6%,nt,0%,nt,4%,-4%,nt
NC(=NCc1ccccc1)C(N=Nc1ccccc1)C(=O)NCc1ccccc1 (stereo not given),-22%,nt,nt,?,nt,-2%,-1%[46.1 µM],nt
CCc1cccc(C)c1NC(=O)CN1C(=O)C2(SCC(=O)N2c2cccc(F)c2)c2ccccc21 (stereo not given),-12%,nt,nt,nt,0.8%,nt,?,-3%
COc1ccc(NC(=O)COc2ccc(C(=O)OCC(=O)N(C)C3CCS(=O)(=O)C3)cc2OC)cc1 (stereo not given),-10%,1%,nt,16%[46.1 µM],nt,-3%,?,nt
CC(C)c1ccc(NC(=O)C2C3C=CC4(CN(CCCN5CCOCC5)C(=O)C24)O3)cc1 (stereo not given),-13%,0%,-2%,26%,3.7%,-6%,13%,0%
Cc1ccc(NC(=O)CCn2c(=S)oc3ccccc32)cc1F,-14%,1%,1%,-18%[46.1 µM],nt,-5%,11%[46.1 µM],nt
COc1ccc(/C=N/NC(=O)c2cccc([N+](=O)[O-])c2)c2ccccc12,-28%,0%,0%,nt,nt,-9%,nt,nt
COc1ccc(OC)c(-c2cc(C(=O)O)c3cc4ccccc4cc3n2)c1,20%,nt,-6%,nt,-2.1%,-16%,nt,26%
Cc1ccc(C)c(NC(=O)CCOc2ccccc2)c1,5%&-8%,-1%,-4%,-12%&-12%[46.1 µM],2.5%,6%,-6%&0%[46.1 µM],22%
Cc1cccc(-n2cnc3cc(C(=O)NC4CCCCCC4)ccc32)c1,3%,nt,nt,nt,-0.3%,nt,?,4%
COc1ccccc1Oc1ccc2c(c1)C(=O)N(c1ccc(C)cc1)C2=O,-11%,-8%,-2%,15%,-1.3%,9%,9%,-11%
Cc1nc2ccccn2c1C(=O)CSc1ccccc1Cl,25µM*,-7%,-55%,?,-1.1%,-20%,-15%,16%
O=C(Nc1ccc(O)c(-c2nc3ccccc3o2)c1)C1(c2ccc([N+](=O)[O-])cc2)CCCC1,-16%,27%,8.9µM*,?,-3.3%,-8%,-7%,4µM*
O=C(O)CC1NC(=O)N(c2ccc(Cl)cc2)C1=O (stereo not given),-2%,-4%,-3%,28%,5.9%,-9%,3%,1%
CN(CCOc1ccccc1)C(=O)c1cc([N+](=O)[O-])ccc1N1CCOCC1,-7%,-10%,nt,-12%,nt,-8%,-2%,nt
CCCC(=O)Oc1ccc(-c2nccc(C(OC)OC)n2)cc1,18%,-1%,nt,?,nt,0%,15%[46.1 µM],nt
O=C(NN1C(=O)/C(=C\c2ccc(O)c([N+](=O)[O-])c2)SC1=S)c1ccccc1Cl,-22%,-6%,7%,-6%[46.1 µM],nt,?,nt,nt
CC1CN(C(=O)COC(=O)CSc2ccc(C(N)=O)cc2[N+](=O)[O-])CC(C)O1 (stereo not given),-4%,-5%,nt,11%,nt,12%,-4%,nt
O=C(O)C1CCCCC1C(=O)NCCc1ccc(Cl)cc1 (stereo not given),-8%,3%,-5%,14%,4.5%,-14%,-1%,2%
C/C(=N/NC(=O)c1ccc2c(c1)OCO2)c1ccc(NC(=O)C(F)(F)F)cc1,8%,-4%,7%,-5%,-4.6%,9%,?,14%
COc1ccccc1C(=O)NCC(=O)NCCSc1ccc(Br)cc1,-15%,1%,nt,11%,nt,15%,15%,nt
CC/C(=N\NC(=O)c1ccncc1)C12CC3CC(CC(C3)C1)C2,-24%,8%,4%,0%,3.5%,11%,11%,0%
CCN(c1ccc(OC)cc1)S(=O)(=O)c1nnc(NC(=O)CC(C)C)s1,0%,-1%,0%,nt,nt,7%,nt,nt

Other entries.
Compound,2A StopGo,SARS PLpro yeast,NS1 function inh,Marburg entry inh,Cruzain Triton,RE007 growth inh,LASV entry inh,Cruzain noTriton
CN(CC(=O)O/N=C(\N)c1ccc(Br)cc1)S(=O)(=O)c1ccccc1,-17%,-5%,0%,0%,nt,1%,1%,nt
O=C(COC(=O)CNC(=O)c1ccccc1F)NCCC1=CCCCC1,-13%,-2%,-7%,-8%,14µM*,-2%,1%,10µM*
O=c1ccc2cc(S(=O)(=O)N3CCN(c4ccccc4F)CC3)ccc2[nH]1,-22%,-3%,-8%,nt,nt,6%,nt,nt
Cc1nc2oc3c(=O)[nH]cnc3c2c2c1COC(C)(C)C2,-6%,-1%,6%,nt,nt,-2%,nt,nt
O=c1c2c(nc(NCCO)n1CC1CCCCC1)-c1ccccc1CC21CCCC1,-27%,-7%,26%,-28%[46.1 µM],-17%,-2%,1%,0%
O=C(NC(=S)Nc1nc(-c2ccc([N+](=O)[O-])cc2)cs1)c1ccco1,8%,-3%,17%,-17%,nt,3%,12%,nt
CCOC(=O)c1sc(NC(=O)CN(CC(C)C)CC(C)C)c(C(=O)OCC)c1C,6%,-2%,?,?,2.1%,-3%,-20%,-4%
O=C(NCC1CCCO1)c1ccc(F)c2ccccc12 (stereo not given),-6%,-3%,-2%,nt,nt,-5%,nt,nt
O=C(NCc1ccccn1)C1CCCN(Cc2cnn(-c3ccccc3)c2-n2cccc2)C1 (stereo not given),-11%,0%,3%,-19%,2.7%,-3%,24%,-5%
NC(=O)C1CCN(c2nc(-c3ccccc3)nc3ccccc23)CC1,-27%,-8%,-2%,0%,2.4%,-12%,-6%,8%
